ClpP mod: qHTS Assay for Activators of ClpP | hit rate 1.9% among 340,000 | purified B. subtilis ClpP, FRET peptide cleavage, 20 min | Potency, µM (titrated, usually from 57.5 µM), for inactives: at the highest dose activity change, negative = active; active = well fitted falling curve with a large enough effect; inconclusive = small, poorly fitted or top-dose-only effect; inactive = no such curve, though single readings can be large or run the other way; further: the source files actives as falling curves though it sought activators and does not explain the sign; nearly all actives have a fitted effect of over 65% in size; many hits overshoot -100%
Target sequence (P80244 whole entry, looked up): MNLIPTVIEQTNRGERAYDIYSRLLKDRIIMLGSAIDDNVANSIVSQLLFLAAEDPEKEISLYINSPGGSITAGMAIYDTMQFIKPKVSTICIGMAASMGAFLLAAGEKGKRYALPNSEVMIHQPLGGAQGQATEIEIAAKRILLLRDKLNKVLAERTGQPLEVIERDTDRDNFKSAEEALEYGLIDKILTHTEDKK
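FRET quenching reversal measured ClpP activation: 10 microg/mL B. subtilis ClpP at pH 8 with the FRET-FV decapeptide, read at 430 nm after 320 nm excitation. The 20-min minus 0-min signal was scaled between DMSO/no-enzyme wells and ADEP (5.8 microM final).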
* marks the source's active call; other numbers are inactive results; ? = inconclusive; & = joins results of further samples. Potency means the concentration at half of the fitted maximal effect.

SMILES | ClpP mod
CCCCC[C@H](C)N1C[C@@H](COCc2ccccc2)Oc2cc(N3CCC[C@H]3COC)ccc2S1(=O)=O | -14%
CC(=O)Oc1ccc(Cn2c(C)c(C(=O)N(C)Cc3ccc(F)cc3)sc2=O)cc1 | 1.3%
COc1ccc(CN(C)C(=O)/C=C/[C@H]2O[C@@H](n3cnc4c(N)ncnc43)[C@H](O)[C@@H]2O)cc1OC | 0.4%
CN(C)c1cc(C(=O)N(C)c2ccccc2)ncn1 | -3.6%
COc1ccccc1-c1cnc(C(O)c2ccc(Cl)c(Cl)c2)[nH]1 (stereo not drawn) | -6.9%
Cc1c(C(=O)NCc2cccc(Cl)c2)sc(=O)n1Cc1ccc(C(=O)N(C)C)cc1 | 2.0%
CCOC(=O)C1(C)CCCCN1C(=O)c1ccc(N(C)C)cc1 (stereo not drawn) | 0.5%
OC[C@@H]1CN(CCN2CCOCC2)C[C@H](n2cnc3c(N4CCCC4)ncnc32)O1 | 0.6%
CCCCC(=O)N(C)c1c(C)nc2ccc(C(=O)N3CCN(C(=O)c4ccco4)CC3)cn12 | -5.1%
CCCCNS(=O)(=O)c1cccc(NC(=O)[C@H]2C[C@H](O)[C@@H](CO)O2)c1 | 4.6%

Part of the list above in order of count of non-hydrogen atoms, lowest first.
SMILES | ClpP mod
OC[C@@H]1CN(CCN2CCOCC2)C[C@H](n2cnc3c(N4CCCC4)ncnc32)O1 | 0.6%
COc1ccc(CN(C)C(=O)/C=C/[C@H]2O[C@@H](n3cnc4c(N)ncnc43)[C@H](O)[C@@H]2O)cc1OC | 0.4%
CCCCC[C@H](C)N1C[C@@H](COCc2ccccc2)Oc2cc(N3CCC[C@H]3COC)ccc2S1(=O)=O | -14%

Other records follow.
SMILES | ClpP mod
CC(C)CC(N)c1csc(Nc2cnccn2)n1 (stereo not drawn) | -2.0%
CSc1ccc(CN2CCC(C)(Oc3ccc(F)cc3)C2)cc1 (stereo not drawn) | 1.6%
O=C(Nc1cccc(OC(F)(F)F)c1)C1Cc2c(-c3ccc4c(c3)OCO4)ccnc2O1 (stereo not drawn) | 4.6%
COc1ccc(C2Nc3ccc(NC(=O)COC(C)=O)cc3C(=O)N2Cc2ccccc2)cc1COc1ccc(NC(C)=O)cc1 (stereo not drawn) | 62%
O=C(Cc1ccc(OCCCc2ccccc2)cc1)NO | -0.4%
COc1ccc(NC(=O)c2ccccc2OCC(=O)Nc2ccc(Br)cc2)cc1 | -19%
CCc1nc2ccc(C(=O)N(CC)CCN(C)C)cn2c1N(C)C(=O)C1CCCCC1 | -2.0%
Cc1cc(C)cc(C(O)c2ncc(-c3ccccc3C(F)(F)F)[nH]2)c1 (stereo not drawn) | -1.0%
CC(C)(C)c1ccc(C(O)c2ncc(-c3ccc(F)cc3)[nH]2)cc1 (stereo not drawn) | 2.8%
Cc1cnc(C)c(Nc2nc(C(N)CCc3ccccc3)cs2)n1 (stereo not drawn) | -3.3%
O=C1Cc2ccccc2C(=O)N1 | -5.2%
Nc1sccc1C(=O)NC1CC1 | -18%
CCOC(=O)N1CCN(C(=O)C[C@@H]2C[C@@]3(C(=O)OC)CCCCC=C3N(CCC3=CCCCC3)C2=O)CC1 | 2.3%
COc1ccc(Cl)c(-c2cc(C(=O)NCc3ccc(C(F)(F)F)cc3)[nH]n2)c1 | 3.9%
CCOC(=O)N1CCN(C(=O)C[C@@H]2C[C@@]3(C(=O)OCC)CCC=C3N(Cc3ccc(Cl)cc3Cl)C2=O)CC1 | 2.1%
Nc1[nH]c(C(=O)c2ccccc2)c(-c2ccc(Cl)cc2Cl)c1C(=O)c1ccc(Br)cc1 | -0.4%
CCC(C(=O)NCc1ccccc1)n1c(C2CCN(C(C)=O)CC2)nc2ccccc21 (stereo not drawn) | 0.2%
C[C@H](NC(=O)[C@@H]1CCCN1C(=O)[C@@H]1CCCN1C(=O)c1cccc(Cl)c1)c1ccccc1 | 0.8%
COc1ccc(C(NC(C)=O)c2ccc3cccnc3c2O)cc1OC (stereo not drawn) | -1.0%
CC(C)(C)c1ccc(C(=O)N2CCC2(C)C(=O)Nc2ccc3nc[nH]c3c2)cc1 (stereo not drawn) | -2.1%
COC(=O)[C@@]12C[C@@H](CC(=O)N3CCSCC3)C(=O)N(Cc3ccco3)C1=CCC(C)(C)C2 | -1.1%
O=C1NC[C@@H](CCCCN2C[C@H](Cc3ccc(O)cc3)N(CCC3CCCCC3)C(=O)C2=O)N(CC2CCCCC2)C1=O | -3.6%
CCCCNC(=O)c1nc(-c2ccncc2)oc1-c1ccccc1 | 5.5%
COCCN1C[C@@H](CO)O[C@@H](n2cnc3c(NC(C)C)ncnc32)C1 | 0.6%
COc1cccc(-c2cnc3c(NC(C)=O)cc(-c4ccncc4)cn23)c1 | -5.0%
NC1C(N)C(N)C1N (stereo not drawn) | -1.2%
Cc1cc(F)ccc1C(O)c1ncc(-c2ccccc2)[nH]1 (stereo not drawn) | 0.6%
O=C(/C=C/c1ccc(C(F)(F)F)cc1)OC(C(=O)NC1CC1)c1ccccc1 (stereo not drawn) | -2.7%
CCC(=O)Nc1ccc2c(c1)OC[C@@H](C)N(C(=O)c1ccccn1)C[C@@H](C)[C@@H](OC)CN(C)C2=O | -2.0%
CCCCC[C@@H](C)N1C[C@H](COCc2ccccc2)Oc2cc(N3CCC[C@H]3COC)ccc2S1(=O)=O | -20%
Cc1ccc2cccc(O)c2n1 | -0.7%
C(/Oc1ccccc1)=C1\Nn2c(nnc2-c2cc(-c3ccccc3)n[nH]2)S1 | -3.1%&-0.8%
c1ccc2c(c1)ccn2-n1ccc2ccccc21 | -25%
CCCCC[C@@H](C)N1C[C@H](COCc2ccccc2)Oc2cc(N3CC[C@@H](O)C3)ccc2S1(=O)=O | -14%
Cc1cccc(CN2CCN(C3CN(Cc4cn(Cc5cc(C)cc(C)c5)nn4)S(=O)(=O)C3)CC2)c1 (stereo not drawn) | -1.7%
O=C1NC[C@H](CCCCN2CCN(CCc3ccccc3)C(=O)C2=O)N(CCC2CCCCC2)C1=O | 1.4%
O=C(NC1CCCCC1)C(C1CC1)n1c(=O)c(-c2ccco2)nc2ccccc21 (stereo not drawn) | 4.1%
COc1cccc(NC(=O)C2(C)CCN2Cc2ccc(OC)c3ccccc23)c1 (stereo not drawn) | ?
Cc1cc2nc(C(C)(C)C)c(Cc3ccsc3)n2c(C)c1Br | -0.9%
CC(C)(C)NC(=O)C1c2ccccc2OCC(=O)N1Cc1ccc2c(c1)OCO2 (stereo not drawn) | -0.8%

Reformatted: results already given.
SMILES	ClpP mod
Cc1cc2nc(C(C)(C)C)c(Cc3ccsc3)n2c(C)c1Br	-0.9%
Cc1ccc2cccc(O)c2n1	-0.7%
C(/Oc1ccccc1)=C1\Nn2c(nnc2-c2cc(-c3ccccc3)n[nH]2)S1	-3.1%&-0.8%
COc1cccc(NC(=O)C2(C)CCN2Cc2ccc(OC)c3ccccc23)c1 (stereo not drawn)	?

The listing continues.
SMILES | ClpP mod
CC1(C(=O)NS(=O)(=O)c2ccc(Cl)cc2)CCN1C(=O)Cc1cccc2ccccc12 (stereo not drawn) | 2.4%
COc1ccc(CNC(=O)C2(C)Cc3c(-c4cccc(NC(C)=O)c4)ccnc3O2)cc1OC (stereo not drawn) | -4.1%
CC(=O)Nc1cccc(C(=O)OCC(=O)NC(=O)C2CCCCC2)c1 | -5.0%
Clc1ccc2c(-c3ccccc3)nc(-c3cccs3)nc2c1 | -5.6%
O=C(C(=O)N1CCN(C(=O)c2ccco2)CC1)c1cc2ccccc2o1 | 1.0%
O=C1NC[C@H](Cc2ccc(O)cc2)N(C[C@@H]2CCCN2C[C@H](Cc2ccccc2)N2C[C@H](Cc3ccccc3)N(CC3CCCCCC3)C(=O)C2=O)C1=O | 0.8%
Cc1cccc(C)c1NC(=O)C(c1ccncc1)N1CCN(C)CC1 (stereo not drawn) | -3.4%
CCCCNC(=O)C1(C)CCN1C(=O)c1c(F)ccc(C)c1F (stereo not drawn) | -3.9%
COc1cc(C)ccc1S(=O)(=O)NC(=O)C1(C)CCN1C(=O)COc1ccc(Cl)cc1 (stereo not drawn) | 0.6%
CC(C)(C)OC(=O)C(Oc1ccccc1[N+](=O)[O-])C(=O)OC(C)(C)C | 1.6%

The final four entries of the section above come first, to join the parts:
SMILES | ClpP mod
Cc1cccc(C)c1NC(=O)C(c1ccncc1)N1CCN(C)CC1 (stereo not drawn) | -3.4%
CCCCNC(=O)C1(C)CCN1C(=O)c1c(F)ccc(C)c1F (stereo not drawn) | -3.9%
COc1cc(C)ccc1S(=O)(=O)NC(=O)C1(C)CCN1C(=O)COc1ccc(Cl)cc1 (stereo not drawn) | 0.6%
CC(C)(C)OC(=O)C(Oc1ccccc1[N+](=O)[O-])C(=O)OC(C)(C)C | 1.6%
CN(C)c1ccc(-c2ccnc3c2CC(C)(C(=O)Nc2ccc(Cl)cc2)O3)cc1 (stereo not drawn) | 4.6%
CC(O)(c1cccnc1)c1nc(-c2ccc3c(c2)OCO3)cs1 (stereo not drawn) | 0.6%
CCc1nc2ccc(C(=O)Nc3cc(-c4ccccc4)ccc3OC)cn2c1N(CCN(C)C)CC1CC1 | -4.8%
COc1ccc2oc3cc(NCCN(C)C)ccc3c(=O)c2c1 | 4.5%
COc1ccc(-c2oc3c(c2C#CC2(O)CCCCC2)C(OC(C)=O)CCC3)cc1 (stereo not drawn) | 5.0%
CCOC(=O)[C@]12CCC=C1N(Cc1ccco1)C(=O)[C@H](CC(=O)NCCCOC)C2 | -4.0%
CCOc1ccc(Cl)cc1-c1cc(C(=O)Nc2ccc(OC)nc2)[nH]n1 | 0.3%
CC(C)n1nnnc1C1c2ccccc2C(=O)N1C1CC1 (stereo not drawn) | -2.9%
CC(=O)Nc1ccc(CN(C)c2c(C)nc3ccc(C(=O)N(C)Cc4ccccc4)cn23)cc1 | 0.5%
CC(C)(C)NC(=O)C(c1ccncc1)n1c(-c2ccc(C(F)(F)F)cc2)nc2ccccc21 (stereo not drawn) | 4.1%
Cc1ccc(Cn2cc(CN3CC(N4CCCCC4)CS3(=O)=O)nn2)cc1 (stereo not drawn) | 1.7%
O=C1CN(CN2CCCCC2)C(=O)CN1CN1CCCCC1 | -1.7%
O=C(Cn1cc(COc2ccc(Cl)c(Cl)c2)nn1)NS(=O)(=O)c1ccccc1C(F)(F)F | 0.7%
O=C(c1cccs1)N(Cc1ccco1)c1ccc(O)cc1 | -0.2%
OC(c1ccc(-c2ccccc2)cc1)c1ncc(-c2ccccc2F)[nH]1 (stereo not drawn) | -6.6%
COC(=O)[C@]12CCCCC=C1N(Cc1cccc3ccccc13)C(=O)[C@H](CC(=O)NCCC(C)C)C2 | -3.5%
COc1ccccc1-c1cnc(C(O)c2c(C)cccc2C)[nH]1 (stereo not drawn) | -12%
Nc1ncnc2c1ccn2[C@H]1CN(Cc2ccc3c(c2)OCO3)C[C@@H](CO)O1 | 0.7%
CC(C)[C@H](NC(=O)OC(C)(C)C)c1cc(C(=O)N[C@@H](C)c2ccccc2)c(N)s1 | -14%
CCOC(=O)[C@]12CCCC=C1N(Cc1ccc3c(c1)OCO3)C(=O)[C@H](CC(=O)NCCCCc1ccccc1)C2 | -1.2%
C[C@H]1CNC(=O)c2c(C(=O)NC3CCN(C(=O)OC(C)(C)C)CC3)ncn21 | -0.2%
COc1ccc(Cl)cc1C(=O)Nc1ccc([N+](=O)[O-])cc1Cl | -10%
CC(C)C[C@@H]1Cc2[nH][nH]c(=O)c2[C@H](C)O1 | -2.8%
c1ccc(N=c2nc(-c3ccccc3)n(-c3ccccc3)s2)cc1 | 2.4%
CC(C)n1c(=O)c2ccccc2n1Cc1cn(Cc2cccnc2)nn1 | 5.2%
CCCS(=O)(=O)NC(=O)C1(C)CCCN(C(=O)CSc2ccccc2)C1 (stereo not drawn) | 1.8%
CCOC(=O)N1CCN(C(=O)C[C@@H]2C[C@@]3(C(=O)OCC)CCCC=C3N(Cc3ccco3)C2=O)CC1 | -5.5%
Cc1ccc(S(=O)(=O)Nc2ccccc2[N+](=O)[O-])cc1 | 2.0%
CC(C)NC(=O)C1(C)CSCC(=O)N1C1CCN(Cc2ccccc2)CC1 (stereo not drawn) | -2.3%
CCCCC(=O)N(C)c1c(CC)nc2c(OCC(N)=O)cccn12 | -1.5%
Nc1ccc2cccnc2c1 | -6.8%
CC(=O)Nc1ccc(NC(=O)C2(C)Cc3c(-c4cccc(C(F)(F)F)c4)ccnc3O2)cc1 (stereo not drawn) | 1.3%
O=c1cc(CN2CCN(c3ccc(Cl)c(Cl)c3)CC2)c2ccccc2o1 | -4.1%
O=C(NCCN1CCC(n2c(=O)[nH]c3ccccc32)CC1)N1c2ccccc2Sc2ccccc21 | 1.2%
CC(C)c1ccc([C@@H]2O[C@H](CCc3ccccc3)CC3=C2C(=O)OC(C)(C)O3)cc1 | -1.6%
COc1cc(-c2c(C(=O)c3ccccc3)[nH]c(N)c2C(N)=O)ccc1F | -0.3%
O=[N+]([O-])c1cccc(COc2ccccc2CO)c1 | 1.9%
O=C(Nc1ccc(F)cc1)C(c1cccc(F)c1)N1CCN(CC(=O)N2CCCC2)CC1 (stereo not drawn) | -2.1%
Cc1ccc(CN2CC(N3CCN(c4ccccn4)CC3)CS2(=O)=O)cc1 (stereo not drawn) | -1.7%
O=C(NC(c1ccc(F)cc1)c1ccc2ccccc2n1)C1CCN(Cc2ccc3ccccc3n2)CC1 (stereo not drawn) | -2.8%
CC(C)OC(=O)/C=C1\C[C@@H](c2ccccc2C(F)(F)F)O[C@@H](c2ccccc2C(F)(F)F)O1 | -2.5%
O=C(NCc1ccccc1)c1cc(C2CCCN(C(=O)CCc3ccccc3)C2)on1 (stereo not drawn) | -0.9%
COc1ccc(OC)c2c(/C=C/c3ccc(N(C)C)cc3)ccnc12 | 0.6%
CN(Cc1ccccc1)c1nccn2ccnc12 | -5.2%
COc1cc(NC(=O)C2(C)CCCN(C(C)C)C2)cc(OC)c1OC (stereo not drawn) | -0.9%
COc1ccc(Cc2c(-c3ccc(OC)c(OC)c3)nc3ccc(C)cn23)c(C)c1 | 4.8%

High-throughput results (PubChem BioAssay)

These rows are one share of the data. The share of hits here may be higher or lower than overall.
